High-throughput results (PubChem)
Rango release inh: prevents RanGTP from dissociating the Rango-importin beta complex. O95149+P62826. Biochemical FRET Rango-importin beta, RanGTP-induced dissociation. Potency, µM (doses to about 46.1 µM), inactives show top-dose activity change, negative = inhibition. actives 0.071% (n = 340,000). AID 540253; active means falling FRET ratio curve, often poorly fitted, with flat reads before Ran was added; inconclusive means other falling curves, or compound fluorescence or quenching; inactive means flat or rising ratio curve;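 note: potency is the fitted concentration of half-maximal effect; % of control where 0% means no effect; nearly all actives have a fitted effect of over 45% in size; -100% = wells without RanGTP and RCC1; the record marks most hits as doubtful in a second field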
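Compounds sat 5 min at room temperature with 0.1 uM Rango biosensor plus 0.25 uM importin beta, then FRET pre-read. RanGTP-RCC1 (0.6 uM Ran, 2mM GTP, 0.2 uM RCC1) added for 45 min, and the CFP/YFP post-read measured blocked complex dissociation.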
Rango complex inh: prevents formation of the Rango-importin beta complex. Q14974. Rango CFP/YFP FRET sensor + importin beta, 45 min. Potency, µM (highest dose often 92.2 µM), for inactives: top-dose inhibition of complex formation. actives 0.031% (n = 340,000). AID 540263; active = rising FRET ratio curve, often small or poorly fitted; inconclusive = mostly compound fluorescence or quenching in the first reads; inactive = flat curves in all reads;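 note: potency is the fitted concentration of half-maximal effect; 0% = DMSO wells and 100% = buffer wells lacking importin beta; nearly all actives have a fitted effect of over 15% in size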
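FRET biosensor (snurportin 1 IBB flanked by EYFP and cerulean), 50 nM, with compound 5 min, then 0.125 microM importin beta in PBS, 1 mM DTT, 0.02% Tween-20, 0.1% BSA. CFP/YFP ratio read after 45 min at room temperature; pre-read flags interference.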
miR-21 reporter: raises the signal of a miR-21 reporter. HeLa miR-21 FLuc reporter, luciferase, 48 h. Potency, µM (top dose mostly 38.3 µM), for the others: at the top dose reporter change, positive = more light. 340,000 tested, under 10 active. AID 2288; active = well fitted rising curve with a large enough effect; inconclusive = small, poorly fitted or top-dose-only effect; inactive = no such curve, though single readings can be large or run the other way;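 note: % of control where 0% means no effect; miR-21 action dims this reporter so a rising signal means less miR-21 action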
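HeLa miR-21-FLuc reporter line, endogenous miR-21; 2000 cells/well in DMEM/10% FBS; compound titration up to ~40uM final, 48 h, 37 degree Celsius; luciferase detection reagent, 15 min lysis, CCD luminescence.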
GLA inh pH 4.5: blocks human alpha-galactosidase A at pH 4.5; P06280; purified enzyme, 4-MU-alpha-Gal fluorescence, pH 4.5; activity change, negative = inhibition, % at 105 µM; 230,000 tested, under 10 active; AID 1467; inconclusive = small, poorly fitted or top-dose-only inhibition, or a rising curve; inactive = flat fitted curve, though single readings scatter; no compound was filed as active;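 note: 0% = full activity with enzyme and -100% = basal without enzyme; dose as in the result columns while the protocol names 77 µM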
Target sequence (P06280 whole entry, looked up): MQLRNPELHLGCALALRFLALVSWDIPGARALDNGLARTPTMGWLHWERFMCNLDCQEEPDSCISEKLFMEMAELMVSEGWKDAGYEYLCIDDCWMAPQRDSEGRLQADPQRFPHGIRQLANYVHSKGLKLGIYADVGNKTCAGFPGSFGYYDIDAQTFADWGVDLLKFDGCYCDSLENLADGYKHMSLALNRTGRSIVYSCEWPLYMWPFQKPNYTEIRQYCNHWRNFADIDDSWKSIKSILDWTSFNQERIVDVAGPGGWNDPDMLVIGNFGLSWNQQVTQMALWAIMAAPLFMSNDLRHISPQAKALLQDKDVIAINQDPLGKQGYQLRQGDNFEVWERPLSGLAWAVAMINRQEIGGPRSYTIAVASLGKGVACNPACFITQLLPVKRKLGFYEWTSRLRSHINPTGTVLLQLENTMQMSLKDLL
Numbers without * were called inactive; & = joins results of further samples; [ ] = another dose, or the depositor's remark. Not all compounds are listed, so the mix of outcomes need not match the whole.

`COc1cc(/C=C/C(=O)NCCN2CCOCC2)cc(OC)c1OC` gave Rango release inh 16%, Rango complex inh -2.0%, miR-21 reporter -2% and GLA inh pH 4.5 -1.
`COc1ccc(C(C)C)cc1S(=O)(=O)n1ccnc1C` gave Rango release inh -8%, Rango complex inh 0.4%, miR-21 reporter -8% and GLA inh pH 4.5 3.
O=C(NC(c1ccccc1)c1ccccc1)c1ccccc1 was read as Rango release inh 6% and Rango complex inh -1.4%.
`Cc1cc(NC(=S)N(CCN2CCCCC2)Cc2ccco2)ccc1Cl` gave Rango release inh -9%, Rango complex inh -6.9%, miR-21 reporter -1% and GLA inh pH 4.5 -10.
For CC(=O)c1ccc(OCc2cc(C(=O)NCCn3nc(C)cc3C)no2)cc1 the results were Rango release inh -8%, Rango complex inh inconclusive and miR-21 reporter -30%.
For CCCCn1c(N)c(N(CC)C(=O)C2COc3ccccc3O2)c(=O)[nH]c1=O (stereo unspecified) the results were Rango release inh 18% and Rango complex inh 1.7%.
`COc1ccc(S(=O)(=O)N2CCOCC2)cc1NC(=O)c1cc2ccccc2o1` gave Rango release inh -16% and Rango complex inh -0.4%.
`C=CCN(CC=C)S(=O)(=O)c1ccc(NC(=S)NC(=O)c2ccc(-c3ccccc3)cc2)cc1` gave Rango release inh 9%, Rango complex inh -0.4%, miR-21 reporter -8% and GLA inh pH 4.5 -3.
Screening CC(=O)N/C(=C\c1ccc(F)cc1)C(=O)N(C)C returned Rango release inh 16%, Rango complex inh -0.7%, miR-21 reporter -4% and GLA inh pH 4.5 -2.
COc1cc(OC)cc(-c2c(C#Cc3ccsc3)c3cc(-c4ccccc4OC)ccc3n2C)c1 was read as Rango release inh -24% and Rango complex inh inconclusive.
Cc1c(C(=O)O)sc2nc3n(c(=O)c12)CCC(C)CC3 (stereo unspecified) was read as Rango release inh 11%, Rango complex inh -5.7%, miR-21 reporter -5% and GLA inh pH 4.5 8.
Screening Cc1cc(CNC(=O)COc2ccc(F)cc2F)c2ccccc2n1 returned Rango release inh -1%, Rango complex inh -0.7%, miR-21 reporter -4% and GLA inh pH 4.5 9.
`CCn1nc(NS(=O)(=O)c2ccc(F)cc2)c2cc3cccc(C)c3nc21` gave Rango release inh inconclusive, Rango complex inh inconclusive and miR-21 reporter -4%.
Screening CC(NC(=O)c1ccccc1NC(=O)c1ccncc1)c1ccccc1 (stereo unspecified) returned Rango release inh 1%, Rango complex inh -4.0%, miR-21 reporter 4% and GLA inh pH 4.5 2.
Cc1onc(-c2c(F)cccc2Cl)c1C(=O)N(C)C1CCCCC1 was read as Rango release inh 1%, Rango complex inh 1.7% and miR-21 reporter 5%.
`O=c1oc2ccccc2cc1-c1nc2c(s1)CCc1ccccc1-2` gave Rango release inh inconclusive, Rango complex inh inconclusive, miR-21 reporter -7% and GLA inh pH 4.5 -12.
Screening CCC1=Nc2cc(C(=O)O)ccc2Sc2ccccc21 returned Rango release inh 17%, Rango complex inh -0.3%, miR-21 reporter -5% and GLA inh pH 4.5 0.
O=C1c2ccccc2C(=O)c2c1cccc2N(CCO)CCO was read as Rango release inh 8%, Rango complex inh inconclusive and miR-21 reporter -14%.
For CCOc1ccccc1N(CC(=O)NCc1ccc(OC)cc1)S(C)(=O)=O the results were Rango release inh 0%, Rango complex inh 0.3%, miR-21 reporter 0% and GLA inh pH 4.5 6.
O=C(Cc1ccc(F)cc1)Nc1ccccc1Sc1ccccc1 was read as Rango release inh 13%, Rango complex inh -0.7%, miR-21 reporter -6% and GLA inh pH 4.5 4.
For COc1cc(C)c(Br)cc1S(=O)(=O)NCc1cccs1 the results were Rango release inh -8%, Rango complex inh 0.7% and miR-21 reporter -13%.
Screening CC(C)C[C@@H](CNC(=O)OC(C)(C)C)NC(=O)c1nc[nH]c1C(=O)N[C@@H](CC(C)C)C(=O)CNC[C@H](CC(C)C)NC(=O)c1nc[nH]c1C(=O)N[C@@H](Cc1c[nH]c2ccccc12)C(=O)OC(C)(C)C returned Rango release inh 9% and Rango complex inh 5.5%.
O=C(CN1CCN(CC(=O)Nc2ccc3c(c2)OCO3)CC1)Nc1ccc(F)cc1 was read as Rango release inh 4%, Rango complex inh 0.0%, miR-21 reporter 0% and GLA inh pH 4.5 -9.
`Cn1nc(C(C)(C)C)cc1NC(=O)Nc1ccc(F)cc1F` gave Rango release inh -11%, Rango complex inh -1.5%, miR-21 reporter -1% and GLA inh pH 4.5 -5.
`O=C(Nc1cccc(F)c1)N1C2CCC1CC(O)(c1cccnc1)C2` (stereo unspecified) gave Rango release inh -8%, Rango complex inh -3.9%, miR-21 reporter -2% and GLA inh pH 4.5 8.
Screening CCOc1ccc(C(NC(C)=O)c2ccc(OC)c(OC)c2)cc1 (stereo unspecified) returned Rango release inh -10%, Rango complex inh 0.4% and miR-21 reporter -14%.
O=C(COC(=O)COc1ccc(Cl)cc1)Nc1ccc2c(c1)OCCO2 was read as Rango release inh 9% and Rango complex inh -0.4%.
Nc1nc(SCC(=O)NC2CCCC2)[nH]c(=O)c1NC(=O)c1cccs1 was read as Rango release inh -1%, Rango complex inh -0.1%, miR-21 reporter 1% and GLA inh pH 4.5 -2.
`COc1ccc(CN=CC2=C(O)CNC2=O)cc1` gave Rango release inh 3%, Rango complex inh -0.6%, miR-21 reporter 0% and GLA inh pH 4.5 5.
CCOC(=O)c1sc2ncn(CC(=O)NCC3CCCO3)c(=O)c2c1C (stereo unspecified) was read as Rango release inh -7%, Rango complex inh 1.1%, miR-21 reporter -2% and GLA inh pH 4.5 -2.
Screening O=C(Nc1ccc(Cl)c(C(F)(F)F)c1)[C@@H]1CC=C[C@@H]2CCN(Cc3ccc(Cl)c(Cl)c3)C(=O)[C@@H]21 returned Rango release inh 18% and Rango complex inh -3.8%.
For Cc1nc(-c2cccc(NS(=O)(=O)c3ccc4ccccc4c3)c2)cs1 the results were Rango release inh -7%, Rango complex inh 0.0%, miR-21 reporter -10% and GLA inh pH 4.5 1.
Screening O=c1ccnc(S/C=C/c2ccccc2)[nH]1 returned Rango release inh 4%, Rango complex inh -6.1%, miR-21 reporter -31% and GLA inh pH 4.5 -3.
O=C1C2CC=CCC2C(=O)N1c1ccc(Cc2ccncc2)cc1 (stereo unspecified) was read as Rango release inh -20%, Rango complex inh inconclusive, miR-21 reporter 6% and GLA inh pH 4.5 4.
COc1ccc(/C(O)=C2/C(=O)C(=O)N(c3nc(C)c(C)s3)C2c2ccco2)cc1 (stereo unspecified) was read as Rango release inh inconclusive, Rango complex inh inconclusive, miR-21 reporter -16% and GLA inh pH 4.5 -2.
`O=C(CNC(=O)c1cccc(Br)c1)N/N=C/c1cn[nH]c1-c1ccccc1` gave Rango release inh 0%, Rango complex inh -2.9%, miR-21 reporter -4% and GLA inh pH 4.5 4.
For O=C(NCc1ccccc1)c1onc(CS(=O)(=O)c2ccc(Cl)cc2)c1C(=O)NCc1ccccc1 the results were Rango release inh 8% and Rango complex inh -0.8%.
`CC(C)C(=O)Nc1cccc(-c2csc(-c3ccccc3)n2)c1` gave Rango release inh 4%, Rango complex inh 0.2%, miR-21 reporter -44% and GLA inh pH 4.5 -7.
CC1CCN(C(=O)CCNS(=O)(=O)c2ccc(Cl)cc2)CC1 was read as Rango release inh -9%, Rango complex inh -3.9% and miR-21 reporter -3%.
Screening O=C(Nc1cc(S(=O)(=O)N2CCOCC2)ccc1N1CCCC1)c1ccc(F)cc1 returned Rango release inh -1% and Rango complex inh 0.5%.

Already shown: an excerpt of the list.
CC1CCN(C(=O)CCNS(=O)(=O)c2ccc(Cl)cc2)CC1 was read as Rango release inh -9%, Rango complex inh -3.9% and miR-21 reporter -3%.
Screening O=C(Nc1cc(S(=O)(=O)N2CCOCC2)ccc1N1CCCC1)c1ccc(F)cc1 returned Rango release inh -1% and Rango complex inh 0.5%.

Remaining list, next part
O=C(COc1ccc(S(=O)(=O)NC2CCCCC2)cc1Cl)NCC1CCCO1 (stereo unspecified) was read as Rango release inh -6%, Rango complex inh 1.8%, miR-21 reporter 11% and GLA inh pH 4.5 3.
For OC(c1ccccc1)(c1ccccc1)c1nccn1-c1ccccc1 the results were Rango release inh -28% and Rango complex inh -2.4%.
For COc1ccc(OC)c(NC(=O)N2CCCC(C)C2)c1 (stereo unspecified) the results were Rango release inh -3%, Rango complex inh 4.9%, miR-21 reporter -4% and GLA inh pH 4.5 4.
`CCOC(=O)c1cc([N+](=O)[O-])c([N+](=O)[O-])cc1NC(C)=O` gave Rango release inh 12%, Rango complex inh -1.0%, miR-21 reporter inconclusive and GLA inh pH 4.5 3.
For Nc1ncn(C(=S)Nc2ccccc2)n1 the results were Rango release inh 5% and Rango complex inh 0.3%.
`Cc1cc(/C=N/n2cnnc2)c(C)n1-c1ccc(Cl)cc1Cl` gave Rango release inh 24%, Rango complex inh -2.9%, miR-21 reporter 11% and GLA inh pH 4.5 2.
Screening CCN(CC)S(=O)(=O)c1cccc(C(=O)OCC(=O)c2ccc3c(c2)OCCO3)c1 returned Rango release inh -16%, Rango complex inh -1.0%, miR-21 reporter -8% and GLA inh pH 4.5 -1.
Cc1ccc(-c2csc(NC(=O)c3ccccc3F)c2C(=O)O)cc1 was read as Rango release inh 1%, Rango complex inh 3.5% and miR-21 reporter 15%.
`CN(C)S(=O)(=O)N1CCc2ccc(NC(=O)c3ccc(C(F)(F)F)cc3)cc2C1` gave Rango release inh inconclusive, Rango complex inh 1.2% and miR-21 reporter 12%.
Screening CCc1nc(SCC(=O)NCc2ccco2)c2c3c(sc2n1)CCCC3 returned Rango release inh 0%, Rango complex inh -0.2%, miR-21 reporter -7% and GLA inh pH 4.5 -2.
`CCN(CC)c1cc(C)c(C#N)c2nc3ccccc3n12` gave Rango release inh inconclusive, Rango complex inh inconclusive, miR-21 reporter -8% and GLA inh pH 4.5 4.
Cc1cc(C)n(-c2ccc(C(=O)OCC(=O)Nc3ccccc3F)cc2)n1 was read as Rango release inh -12% and Rango complex inh 5.2%.
`O=C(COc1ccc2ccc(=O)oc2c1)N1CCN(c2ccccc2)CC1` gave Rango release inh -6%, Rango complex inh -3.5%, miR-21 reporter 6% and GLA inh pH 4.5 12.
Screening CCS(=O)(=O)CCn1c([N+](=O)[O-])cnc1C returned Rango release inh -23%, Rango complex inh -1.9%, miR-21 reporter 0% and GLA inh pH 4.5 -5&-9&5.
`Cc1noc(C)c1CSc1ccc(Br)cc1` gave Rango release inh -6%, Rango complex inh 0.2%, miR-21 reporter -4% and GLA inh pH 4.5 -7.
O=C(CCNC(=O)c1ccc([N+](=O)[O-])cc1)Nc1cccc(S(=O)(=O)N2CCCCC2)c1 was read as Rango release inh -15%, Rango complex inh 2.1%, miR-21 reporter 22% and GLA inh pH 4.5 3.
`CC(Oc1cccc2cccnc12)C(=O)N/N=C/c1ccccc1` (stereo unspecified) gave Rango release inh 27%, Rango complex inh -2.5%, miR-21 reporter -4% and GLA inh pH 4.5 3[21.1 µM].
`O=C(O)CC(c1ccc(Cl)cc1)N1Cc2ccccc2C1=O` (stereo unspecified) gave Rango release inh 5%, Rango complex inh -1.4% and miR-21 reporter -4%.
`O=C(O)CNS(=O)(=O)Cc1ccccc1` gave Rango release inh 5%, Rango complex inh 4.0%, miR-21 reporter 4% and GLA inh pH 4.5 0.
Screening COc1ccc(Oc2nc(C)nc3c2oc2ccccc23)cc1 returned Rango release inh 8%, Rango complex inh -0.1%, miR-21 reporter 1% and GLA inh pH 4.5 0.
CC(C)CC(c1nnnn1C1CCCC1)N1CCN(C(=O)c2ccco2)CC1 (stereo unspecified) was read as Rango release inh -20%, Rango complex inh -2.0%, miR-21 reporter -6% and GLA inh pH 4.5 -3.
`Cc1ccc(OCc2cc(C(=O)NC3CCc4ccccc43)no2)cn1` (stereo unspecified) gave Rango release inh 0%, Rango complex inh -0.7% and miR-21 reporter 14%.
CS(=O)(=O)Nc1cccc(C2=NN(C(=O)c3cccc([N+](=O)[O-])c3)C(c3cccs3)C2)c1 (stereo unspecified) was read as Rango release inh -13%, Rango complex inh -1.0% and miR-21 reporter -8%.
For O=C(O)CCC(=O)Nc1ccc(OCC2CCCO2)cc1 (stereo unspecified) the results were Rango release inh -4%, Rango complex inh -0.2% and miR-21 reporter 0%.
